# CDC25B CDK2 inh = primary biochemical HTRF screen for blockers of M-phase inducer phosphatase 2 binding to CDK2/cyclin A. z-score (no concentration beside the values). HTRF CDC25B-CDK2/CyclinA binding, anti-His/anti-Flag; active compounds read high. actives 0.72% (n = 94,000). P30305+P24941;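 note: score is relative to mean and SD of negative controls; strong numbers were not always called active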
# TAR Tat displ = TAR RNA-Tat peptide displacers, HIV-1, primary screen, biochemical, FRET, FAM/TAMRA-labeled Tat; z-score (no concentration beside the values); AID 1259389, 2018; HIV-1 TAR RNA, Tat peptide displacement FRET; active compounds read high; actives 0.6% (n = 100,000);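 note: score is relative to mean and SD of negative controls; some compounds called inactive have numbers as strong as hits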
# Starred values were filed as active, the others as inactive; x = not tested or not shown.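 Rule for the calls: active = z-score from 3 up in half or more of its runs; inactive = the rest.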
SMILES,CDC25B CDK2 inh,TAR Tat displ
Cc1ccc(C2Nc3ccccc3-n3cc4c(=O)n(C)c(=O)n(C)c4c32)cc1 (centres undefined),1.03,-2.51
O=C1CC(c2nc3ccccc3n2Cc2ccccc2)CN1Cc1ccccc1 (centres undefined),-1.87,0.31
CCc1ccc(-c2cc(C)no2)cc1S(=O)(=O)Nc1ccc(-c2ccno2)cc1,x,-0.06
COc1ccc(NC(=O)C2=CC(c3cc(OC)ccc3OC)=NS(=O)(=O)N2C)cc1,-2.26,1.66
Cc1ccc(N(C)S(=O)(=O)c2ccc(-c3cc(C(F)(F)F)on3)s2)cc1,x,1.01
COc1ccc(COC(=O)C2=C(C)NC(=O)CC2c2cc3c(cc2Br)OCO3)cc1 (centres undefined),1.47,1.16
O=C(O)C1CSC(c2ccsc2)N1 (centres undefined),0.41,x
Cn1c(=O)[nH]c2nnc(-c3cc(Br)cs3)nc2c1=O,-1.78,1.64
CCCc1cc(=O)n2nc(N3CCC(C(=O)NCCCN4CCCC4=O)CC3)sc2n1,0.51,1.88
CCCOc1ccc(C2CC(=O)Nc3c2c(C)nn3-c2ccc3nnc(C)n3n2)cc1OCC (centres undefined),x,1.5
Cc1cc(NC(=O)CN2CCCC2)nc2c1c(=O)oc1ccccc12,0.78,0.07
CCOC(=O)c1noc2nc(C)nc(NCCc3ccsc3)c12,x,0.01
FC(F)(F)c1ccc2cccc(C(F)(F)F)c2n1,-1.47,x
COc1ccc(OC)c(S(=O)(=O)c2ccc([N+](=O)[O-])cc2Cl)c1,-0.89,x
Cc1nn(C(C)C(=O)NC(C)CCc2ccccc2)c(=O)c2cc3occc3n12 (centres undefined),-0.32,1.69
CSc1nc2c(sc3ccccc32)c(=O)n1Cc1ccc2c(c1)OCO2,0.18,x
Cc1cc(OCC(=O)n2cnnc2N)cc(C)c1Cl,1.3,1.16
CCCc1nn(S(=O)(=O)c2ccc(F)cc2F)cc1C(=O)OCC,-1.71,x
COC(=O)C1=C(OC(=O)c2ccccc2OC(C)=O)c2ccccc2S(=O)(=O)N1C,-0.67,0.4
CCN1C(=O)C2(/C(=C(/O)c3ccc4c(c3)CC(C)O4)C(=O)C(=O)N2CCCN(C)C)c2ccccc21 (centres undefined),-1.13,1.55

# In another format: results already given
# Below each compound – CDC25B CDK2 inh | TAR Tat displ
- COc1ccc(NC(=O)C2=CC(c3cc(OC)ccc3OC)=NS(=O)(=O)N2C)cc1
  -2.26 | 1.66
- Cc1ccc(N(C)S(=O)(=O)c2ccc(-c3cc(C(F)(F)F)on3)s2)cc1
  x | 1.01
- COc1ccc(COC(=O)C2=C(C)NC(=O)CC2c2cc3c(cc2Br)OCO3)cc1 (centres undefined)
  1.47 | 1.16
- O=C(O)C1CSC(c2ccsc2)N1 (centres undefined)
  0.41 | x
- Cn1c(=O)[nH]c2nnc(-c3cc(Br)cs3)nc2c1=O
  -1.78 | 1.64
- CCCc1cc(=O)n2nc(N3CCC(C(=O)NCCCN4CCCC4=O)CC3)sc2n1
  0.51 | 1.88
- CCCOc1ccc(C2CC(=O)Nc3c2c(C)nn3-c2ccc3nnc(C)n3n2)cc1OCC (centres undefined)
  x | 1.5
- Cc1cc(NC(=O)CN2CCCC2)nc2c1c(=O)oc1ccccc12
  0.78 | 0.07
- CCOC(=O)c1noc2nc(C)nc(NCCc3ccsc3)c12
  x | 0.01
- FC(F)(F)c1ccc2cccc(C(F)(F)F)c2n1
  -1.47 | x
- COc1ccc(OC)c(S(=O)(=O)c2ccc([N+](=O)[O-])cc2Cl)c1
  -0.89 | x
- Cc1nn(C(C)C(=O)NC(C)CCc2ccccc2)c(=O)c2cc3occc3n12 (centres undefined)
  -0.32 | 1.69
- CSc1nc2c(sc3ccccc32)c(=O)n1Cc1ccc2c(c1)OCO2
  0.18 | x
- Cc1cc(OCC(=O)n2cnnc2N)cc(C)c1Cl
  1.3 | 1.16
- CCCc1nn(S(=O)(=O)c2ccc(F)cc2F)cc1C(=O)OCC
  -1.71 | x
- COC(=O)C1=C(OC(=O)c2ccccc2OC(C)=O)c2ccccc2S(=O)(=O)N1C
  -0.67 | 0.4
- CCN1C(=O)C2(/C(=C(/O)c3ccc4c(c3)CC(C)O4)C(=O)C(=O)N2CCCN(C)C)c2ccccc21 (centres undefined)
  -1.13 | 1.55

# More structures follow.
SMILES,CDC25B CDK2 inh,TAR Tat displ
CN(C)CC#Cc1cncc(C(=O)NN)c1,-0.28,x
O=C(NCc1ccccc1)NCC1CCN(C2CCCC2)C1 (centres undefined),0.83,1.04
O=c1c(-c2ccc(Cl)cc2)c(N2CCCC2)c1=O,x,0.7
O=C(CSc1nc2ccccc2c(=O)[nH]1)Nc1ccc2c(c1)OCCO2,x,0.34
c1ccc(-n2nnnc2SCc2nc3ccccc3[nH]2)cc1,-0.35,0.05
CC(C)CNc1nc(N)c([N+](=O)[O-])c(N2CC(C)CC(C)C2)n1 (centres undefined),x,0.67
CCSc1ncc2c(=O)n(CC(=O)N(C)c3ccc(F)cc3)cnc2n1,x,0.33
Cc1cc(S(=O)(=O)NCCc2sc3nc(-c4ccc(Cl)cc4)nn3c2C)ccc1F,x,0.88
COC(=O)CN1C(=O)C(O)(CC(=O)c2ccc(Cl)cc2)c2ccccc21 (centres undefined),-1.02,0.13
COc1cc(OC)c(Nc2nc(-c3ccccc3F)no2)cc1Cl,x,0
CNC(=O)COCc1cc(-c2ccc3c(c2)OCO3)on1,x,0.65
Nc1nc(-c2cccnc2)nn1C(=O)c1cccs1,0,-1.87
CCc1nnc(NC(=O)CSC2=NC(=O)C(c3ccccc3)C(=O)N2)s1 (centres undefined),0.48,x
O=C(O)c1ccc2c(c1)N(Cc1ccc(F)cc1)C(=O)[C@H]1CCCN21,0.74,0.86
O=C1COc2ccc(S(=O)(=O)CCC(=O)NC3CC3)cc2N1,x,1.29
O=c1c(S(=O)(=O)c2ccc(F)cc2)c[nH]c2ccc(F)cc12,-1.13,0.05
CCOCCCn1c(SCC(N)=O)nc2c(oc3ccccc32)c1=O,-1.94,-0.05
N/C(=N\OC(=O)c1cccc(C(F)(F)F)c1)c1ccc(OCC(F)(F)F)nc1,-2.26,x
CCOc1ccc(S(=O)(=O)NCc2c(C)nn(CC)c2C)cc1,x,-0.72
COc1ccc(OCC(O)CNC(=O)c2ccc(C)cc2)cc1 (centres undefined),-0.91,x
C=CCn1c(C2CC(=O)N(c3ccc(F)cc3)C2)nc2ccccc21 (centres undefined),-0.82,0.43
CCOC(=O)C1=C(C)OC(N)=C(C#N)C1c1cccnc1 (centres undefined),-0.42,x
Cc1ccc(C2OC3(C(=O)c4ccccc4C3=O)C3C(=O)N(Cc4ccccc4)C(=O)C23)cc1 (centres undefined),-2.08,-1.29
Cc1cc(C)c2c(=O)cc(C(=O)Nc3nc4ccc(Cl)cc4s3)oc2c1,-1.64,-0.85
O=C(NCc1ccccn1)C1CCC(Cn2c(=S)[nH]c3ccccc3c2=O)CC1 (centres undefined),-1.43,x
Cc1ccc(-c2nnc3sc(-c4cnccn4)nn23)cc1,-1.68,0.13
O=c1sc(Nc2ccccc2)nc2ccccc12,1.69,x
Cc1cc(C)c(NC(=O)C(C)n2cnc3onc(C)c3c2=O)c(C)c1 (centres undefined),x,1.21
Cn1cc(C(=O)NCC2CCCO2)c2c3ccccc3n(C)c2c1=O (centres undefined),-0.64,x
CCc1nc(-c2csc(S(=O)(=O)N3CCC(C(=O)NC4CCCC4)CC3)c2)no1,x,3.64
CN(C)CCOC(=O)c1ccc2[nH]c3c(c2c1)CSCC3,-1.46,1.15
CCCCN1C(=O)C2(/C(=C(/O)c3ccc(C)c(F)c3)C(=O)C(=O)N2CCCN(C)C)c2ccccc21 (centres undefined),1.23,2.35
Cc1ccc(-c2nnc3sc(COc4ccccc4Cl)nn23)cc1,-0.75,1.81
CN(C)CCCN(C(=O)CCOc1ccccc1)c1nc2ccc(Cl)cc2s1,x,0.44
Cc1ccc(C)c(NS(=O)(=O)c2cc3c(cc2C)N(C)CCO3)c1,x,3.91
COc1cc(OC)c(OC)cc1Br,-2.02,x
COc1ccc(Cc2nnc3sc(/C=C/c4cccc(C)c4)nn23)cc1,-0.94,-1.37
Cc1nn(CC(=O)NC2CCCC2)c(=O)c2c(C)n(-c3ccc(Cl)cc3)nc12,x,0.31
Cc1ccc2oc3c(c(=O)c2c1)C(c1cccc(O)c1)N(Cc1ccccc1Cl)C3=O (centres undefined),-0.36,1.18
O=c1[nH]c(=O)c2nc3ccccc3nc2[nH]1,-0.62,x

# Ordered by length of the SMILES (lowest first): some entries from above.
SMILES,CDC25B CDK2 inh,TAR Tat displ
CN(C)CCCN(C(=O)CCOc1ccccc1)c1nc2ccc(Cl)cc2s1,x,0.44
CCc1nnc(NC(=O)CSC2=NC(=O)C(c3ccccc3)C(=O)N2)s1 (centres undefined),0.48,x
Cc1ccc(N(C)S(=O)(=O)c2ccc(-c3cc(C(F)(F)F)on3)s2)cc1,x,1.01

# Later entries.
SMILES,CDC25B CDK2 inh,TAR Tat displ
CC(=O)NC1=NN(C(C)=O)C(c2ccc(OCc3ccc(F)cc3)c(Br)c2)S1 (centres undefined),-2.03,2.52
c1ccc(CNc2ncnc3sc4c(c23)CCCC4)cc1,-2.28,1.37
CCOc1cc(C2CC(=O)NC3=C2C(=O)C(C(=O)OC)C(C)C3)cc(Br)c1O (centres undefined),0.17,-0.28
CCSc1nc2n(n1)C(c1cccc(Br)c1)C1=C(CCCC1=O)N2 (centres undefined),-1.6,0.93
CCn1nccc1C1CCCN1S(=O)(=O)c1ccc(F)cc1 (centres undefined),-1.9,0.13
O=C(Nc1ccc(Cl)c(-c2nc3ccccc3o2)c1)c1ccc2ccccc2c1,-5.27,x
CC(=O)Nc1ccc(NC(=O)c2c(Cl)cccc2Cl)c(C)c1,-0.11,x
C=CCC(Nc1cccc(Cl)c1)c1ccco1 (centres undefined),-0.09,-1.04
Cc1ccc(CNc2ccc3c(c2)nc(C)n3C)cc1,-1.78,1.15
N#CC1=C2SCC(O)(c3ccccc3)N2C(=O)CC1c1cccs1 (centres undefined),-2.26,x
O=C(C1COc2cc(S(=O)(=O)N3CCN(c4ncccn4)CC3)ccc2O1)N1CCCCC1 (centres undefined),x,-0.56
CCc1nnc(NC(=O)CSc2nccn2-c2ccc(F)cc2)s1,-1.82,x
CCCCn1c(NCc2ccccn2)nc2ccccc21,-1.32,1.68
S=C1NC(c2ccccc2)=CC(c2ccccc2)N1 (centres undefined),-0.69,x
CCc1nn(CC(=O)NCCN(C(C)CC)C2CCCCC2)c(=O)c2cc3sc(C)cc3n12 (centres undefined),1.31,0.6
CCSCCOC(=O)C1=C(C)NC2=C(C(=O)CCC2)C1c1cccc(OC)c1OC (centres undefined),x,1.41
Cc1ccc(-n2ncc3c(NCCN(C)C)ncnc32)cc1C,x,1.9
CCOC(=O)CSc1nn2c(=O)c(C)nnc2s1,x,0.99
O=C1CNS(=O)(=O)c2ccccc2N1Cc1cccc(F)c1,-0.71,-0.13
CCOc1nc(-c2ccc(C)cc2)ccc1-c1noc(C(C)C)n1,-0.47,-0.89
COc1ccc(Cn2cc3c(-c4ccc(OC)cc4)nnc-3c3cc(OC)c(OC)cc32)cc1,-1.33,0.05
COc1ccccc1-c1nnc(Cc2ccc(Br)cc2Cl)o1,-2.4,2.03
Cc1ccc(-c2nc(C(N)=O)c3[nH]c(=O)n(CC4CCCO4)c3n2)cc1 (centres undefined),x,1.78
CC1Cc2cc(S(=O)(=O)NCC3CCC(C(=O)NCc4ccco4)CC3)ccc2N1C(=O)C1CC1 (centres undefined),x,2.86
Cn1nnnc1SCCCNCc1ccccc1OCc1ccccc1F,-0.82,1.43
COCCn1c(-c2ccc(C)c(C)c2)nc2cccnc21,-0.97,-0.53
CCn1c(COC)nc2ccccc21,-0.64,2.74
CCN1CN(CCc2ccccc2)CNC1=S,-1.84,x
O=C(c1ccccc1Br)N(Cc1ccco1)C1CCS(=O)(=O)C1 (centres undefined),-2.58,3.23
COCCn1c(C)cc(C(=O)C(=O)Nc2nnc(-c3ccco3)s2)c1C,-1.56,30.8*
CCCOc1cccc(C2c3c(-c4ccccc4O)n[nH]c3C(=O)N2CC2CCCO2)c1 (centres undefined),-0.63,2.41
COc1cc(C2C(C(=O)OC3CCCCC3)=C(C)NC3=C2C(=O)CC(C)(C)C3)cc(Cl)c1O (centres undefined),0.37,-0.68
CCc1nnc2sc(-c3ccc4c(c3)OCO4)nn12,-0.53,-0.03
COc1ccc(Nc2nc(N3CC(C)CC(C)C3)nc3c2cnn3C)cc1 (centres undefined),x,0.01
O=C(NCC(c1cccnc1)N1CCOCC1)NC1CCCCC1 (centres undefined),-1.24,-0.24
Nc1nc(-c2ccc(F)cc2)nn1C(=O)c1ccncc1,-0.77,1.81
CN1CCN(c2ccc(NC(=O)C3CCN(c4ncccn4)CC3)cc2)CC1,-2.37,1.18
NNC(=O)c1nn(-c2ccccc2)c(=O)cc1O,-1.41,x
NC(=O)c1ccccc1OCCOc1ccccc1C(N)=O,-2.3,x
O=C(O)C1CCCN(c2nc3ccccc3n3cccc23)C1 (centres undefined),2.67,-1.93
Cc1cccc(-c2nc3scc(CCNS(=O)(=O)c4ccc(C)c(C)c4)n3n2)c1,x,0.86
CC12CCC(C(=O)Nc3cccc4cccnc34)(CC1=O)C2(C)C (centres undefined),-1.55,x
CCCNS(=O)(=O)c1ccc(N2CCCCS2(=O)=O)cc1,x,-0.6
Cc1ccc(C(=O)c2cn(Cc3ccccc3F)c3cc4c(cc3c2=O)OCO4)cc1,-0.37,1.54
Cc1cc(NC(=O)NCCc2csc(C)c2C)ccc1Br,x,-0.17
Cc1nc2ccc(C(=O)O)cc2s1,0.71,0.82
Cc1cc(C)n(CCc2nc3c4ccccc4nc(SCC(=O)c4ccc(F)cc4)n3n2)n1,x,2.02
CC1CC(C)CN(C(=O)CCS(=O)(=O)c2ccc3c(c2)NC(=O)C(C)S3)C1 (centres undefined),x,1.92
Cc1cc(C)c2c(N)c(C(=O)O)sc2n1,-1.37,-0.26
CCN(CC)c1ccc(NS(=O)(=O)c2ccc(-c3ccc(=O)[nH]n3)s2)c(C)c1,x,0.69
